# RE007 growth inh – less growth of the S. pombe RE007 Vpr strain | S. pombe RE007 Vpr strain, BacTiter-Glo ATP luminescence, 24 h; control for the full effect not named in the record | Potency, µM (series often up to 92.2 µM), inactives show top-dose activity change, negative = less growth | hit rate 0.21% among 360,000 | AID 651644; active = well fitted falling curve with a large enough effect; inconclusive = small, poorly fitted or top-dose-only effect; inactive = no such curve, though single readings can be large or run the other way;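 note: % is set by controls: 0 for no effect and ±100 for the full control effect; nearly all actives have a fitted effect of over 50% in size; the assay follows cell death caused by Vpr and the record does not say whether a fall means rescue or toxicity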
#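 Fission yeast RE007 carrying one integrated HIV-1 vpr copy, seeded at OD 0.01 in PMG+AL medium with 23 nL pinned compound. Grown 24 h at 30 degrees; viability read by BacTiter-Glo luminescence after 5 min.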
# LASV entry inh – blocks Lassa virus binding to or entry into cells; Potency, µM (series often up to 37.9 µM), without a hit: at the top dose activity change, negative = inhibition, most hits filed as inhibitors; Lassa virus pseudotype entry inhibition, cell reporter; control for the full effect not named in the record; hit rate 1.2% among 300,000; active means well fitted inhibition curve with a large enough effect; inconclusive means small, poorly fitted or top-dose-only effect, or effect the other way; inactive means flat fitted curve, though single readings scatter; tested in HEK293 cells; note: % is set by controls: 0 for no effect and ±100 for the full control effect; nearly all actives have a fitted effect of over 50% in size; luciferase read-out
# 2A StopGo – lowers the luciferase signal of an FMDV 2A StopGo reporter. human cells with a luciferase reporter of 2A StopGo recoding; control for the full effect not named in the record. Potency, µM (highest dose often 57.9 µM), for the others: at the top dose signal change, negative = less light. hit rate 1.2% among 410,000; active = well fitted falling curve with a large enough effect; inconclusive = small, poorly fitted or top-dose-only effect; inactive = no such curve, though single readings can be large or run the other way; tested in HEK293T cells; note: % is set by controls: 0 for no effect and ±100 for the full control effect; nearly all actives have a fitted effect of over 45% in size; luciferase light after 4 h
# NS1 inh – influenza NS1 inhibition. S. cerevisiae slowed by influenza A NS1, growth recovery by OD600. Potency, µM (doses to about 46.1 µM), for the others: at the highest dose activity, positive = more growth. hit rate 0.4% among 270,000. AID 2326; active means well fitted rising curve with a large enough effect; inconclusive means small, poorly fitted or top-dose-only effect; inactive means no such curve, though single readings can be large or run the other way; note: nearly all actives have a fitted effect of over 50% in size
#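 Growth recovery, yeast-based: influenza A NS1 expressed in S. cerevisiae causes slow growth, and suppressors are detected by OD600. The parent strain without NS1 is used as positive control.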
# SARS PLP yeast – SARS-CoV PLP inhibition in yeast. S. cerevisiae expressing SARS-CoV PLpro, growth rescue; control for the full effect not named in the record. Potency, µM (doses to about 32.9 µM), without a hit: top-dose activity, positive = growth rescue. hit rate 0.19% among 330,000. AID 485353; active means well fitted rising curve with a large enough effect; inconclusive means small, poorly fitted or top-dose-only effect; inactive means no such curve, though single readings can be large or run the other way; note: 0% is about no effect; nearly all actives have a fitted effect of over 55% in size; growth read by luminescence after 48 h
# Cruzain noTriton – blocks cruzain activity in detergent-free assay; P25779; purified cruzain, Z-FR-AMC fluorescence, no detergent; Potency, µM, without a hit: max response, negative = inhibition, actives largely listed as inhibitors; hit rate 2.3% among 200,000; AID 1476;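 note: plate controls were enzyme without inhibitor for no effect and buffer without enzyme for full effect; nearly all actives have a fitted effect of over 40% in size; top concentration of the series not given in the record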
# Target sequence (P25779 123-467 limits assumed): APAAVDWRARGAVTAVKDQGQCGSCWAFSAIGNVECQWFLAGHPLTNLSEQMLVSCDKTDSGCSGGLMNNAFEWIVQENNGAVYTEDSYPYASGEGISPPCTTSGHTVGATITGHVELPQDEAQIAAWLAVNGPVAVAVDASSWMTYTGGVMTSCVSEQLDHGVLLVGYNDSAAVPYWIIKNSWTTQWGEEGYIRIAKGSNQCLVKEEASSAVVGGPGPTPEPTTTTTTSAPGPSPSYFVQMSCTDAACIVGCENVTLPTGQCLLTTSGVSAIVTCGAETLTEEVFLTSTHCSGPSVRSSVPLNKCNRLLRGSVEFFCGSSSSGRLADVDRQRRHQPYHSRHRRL
#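 Purified cruzain at 1.5 nM, pre-incubated 15 min with compound at room temperature in 100 mM sodium acetate pH 5.5, 5 mM DTT, 0.00005% Triton X-100. Reaction started with 2 uM Z-FR-AMC; AMC fluorescence increase over 60 s gives rate.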
# MARV entry inh – inhibitors of Marburg virus binding or cell entry. Potency, µM (series often up to 37.8 µM), without a hit: at the top dose activity change, negative = inhibition, actives largely listed as inhibitors. AID 540276. Marburg virus pseudotyped entry inhibition, cell reporter; control for the full effect not named in the record; about a third of the inactives were read at about 46 µM. hit rate 1.8% among 300,000; active = well fitted inhibition curve with a large enough effect; inconclusive = small, poorly fitted or top-dose-only effect, or effect the other way; inactive = flat fitted curve, though single readings scatter; tested in HEK293 cells; about a fifth of its hits are not listed in these tables; note: % is set by controls: 0 for no effect and ±100 for the full control effect; luciferase read-out
# Cruzain Triton – blocks cruzain activity in presence of Triton detergent. purified cruzain, Z-FR-AMC fluorescence, 0.01% Triton. Potency, µM, inactives show max response, negative = inhibition, actives largely listed as inhibitors. hit rate 0.43% among 200,000;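 note: plate controls were neutral wells for no effect and buffer without enzyme for full effect; nearly all actives have a fitted effect of over 40% in size; top concentration of the series not given in the record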
#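 Read-out: AMC fluorescence (360 nm excitation, 450 nm emission), four reads over 2 min, first-to-third difference used. Conditions: cruzain 1.5 nM, Z-FR-AMC 2 uM, pH 5.5 acetate, 5 mM DTT, 0.01% Triton X-100.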
# * hit, by the source's call; ? = inconclusive; / = not tested or not shown; & = joins results of further samples; [ ] = remark or other dose. Unless noted, calls come from the whole dose curve; as a rule, active = well fitted curve in the direction sought with a large enough effect; inconclusive = small, poorly fitted or top-dose-only effect, or another doubt; inactive = no such curve, though single readings can be large; an effect the other way counts as inactive or inconclusive. Potency is the fitted concentration of half-maximal effect.
SMILES,RE007 growth inh,LASV entry inh,2A StopGo,NS1 inh,SARS PLP yeast,Cruzain noTriton,MARV entry inh,Cruzain Triton
CC(C)NC(=S)N/N=C1\CCCCC1C1CCCCC1 (stereo not given),-21%,-11%,?,-13%,-19%,0%,?,-9.8%
Cc1nnsc1-c1nnc(SCC(=O)c2ccc(F)cc2)n1C1CC1,-4%,-7%,-16%,3%,0%,/,?,/
COc1cc(-c2nc3c4ccccc4nc(=S)n3[nH]2)cc(OC)c1OC,-6%,?,-7%,4%,5%,/,-9%[46.1 µM],/
O=C(O)C1(P(=O)(c2ccc(Cl)cc2)c2ccc(Cl)cc2)CC1,1%,10%[46.1 µM],-3%,5%,1%,/,-22%[46.1 µM],/
COc1ccc(C(=O)OCC(=O)NCCCc2ccccc2)c(OC)c1,-5%,/,-14%,-6%,4%,/,/,/
O=c1[nH]c(Nc2nc3ccccc3o2)nc2c1CCCC2,-10%,5.2µM*,/,0%,-2%,0%,6.5µM*,-1.2%
N/C(=N\OC(=O)C1CCCCC1)c1ccc(Br)cc1,-4%,?,27%,-1%,-4%,/,?,/
Cc1nc(Oc2ccc(F)cc2Cl)c2oc3ccccc3c2n1,/,5%[46.1 µM],?,/,/,?,/,-3.1%
O=C(COC(=O)CNC(=O)c1ccc(Cl)cc1)Nc1ccc(Cl)cc1C(F)(F)F,-12%,-5%,-13%,5%,?,6.3µM*,8%,8.9µM*
CCOc1ccc(/C=C/c2nc(C#N)c(NC(C)c3ccccc3)o2)cc1 (stereo not given),/,?,-10%,/,/,16%,-16%[46.1 µM],-5.0%
COc1ccc(S(=O)(=O)N2CCCOC2CNC(=O)C(=O)NCCc2ccco2)cc1 (stereo not given),-16%,-14%,?,-1%,/,/,0%,/
Cc1ccc(CN2CCN(Cc3cccc(-n4cccn4)c3)CC2CCO)cc1 (stereo not given),0%,20%,-7%,0%,0%,/,?,/
Cc1cccc(C)c1NC(=O)CCS(=O)(=O)c1cccc2nsnc12,4%,20%,0%,6%,20%,-5%,0%,-3.0%
O=C1CC(c2cccs2)c2cc3c(cc2N1)OCO3 (stereo not given),-6%,-8%,-12%,11%,-4%,-17%,25%,4.2%
Cc1ccc(-n2ncc3c(NNC(=O)Cc4ccccc4)ncnc32)cc1,/,-20%,27%,0%,2%,-6%,9%,1.4%
NC(=O)Cc1ccc(Nc2nnc(-c3ccc(O)cc3)c3ccccc23)cc1,-9%,/,-8%,-2%,4%,2%,/,-3.9%
CCC(C)NC(=O)Cn1nc(C(F)(F)F)c2c1CCCC2 (stereo not given),-7%,0%,15%,9%,16%,4%,-5%,-0.6%
CCOc1ccc2nc(N3CCCC(C(=O)N4CCN(CC)CC4)C3)sc2c1 (stereo not given),-5%,/,25%,2%,3%,-11%,/,3.7%
CC(C)Oc1ccc(C(CC(=O)O)NC(=O)c2cccs2)cc1 (stereo not given),11%,-12%,18%,2%,-3%,1%,11%,1.0%
CCS(=O)(=O)Nc1cccc(C(=O)CC2(O)C(=O)Nc3ccccc32)c1 (stereo not given),29%,0%,-28%,-6%,4%,-5%,5%,-3.6%
O=c1c(C(c2ccc(Cl)cc2)c2c(O)nc3n(c2=O)CCS3)c(O)nc2n1CCS2,3%,/,-21%,12%,3%,/,/,/
CCN(c1cccc(C)c1)S(=O)(=O)c1ccc2c(c1)oc(=O)n2C,9%,?,0%,4%,0%,/,?,/
COc1cc(OC)cc(-c2nnc(SCc3cccc(C(=O)O)c3)o2)c1,4%,-23%[14.3 µM],-1%,3%,11%,-3%,-9%,-4.3%
Cc1ccccc1NC(=S)N(Cc1cccs1)C1CCCCC1,3%,/,-18%,-3%,14%,/,-7%[46.1 µM],/
COCCCNC(=O)Cn1cnc2sc(C)c(S(=O)(=O)N3CCN(c4ncccn4)CC3)c2c1=O,-10%,-6%[46.1 µM],-11%,/,-1%,/,-7%[46.1 µM],/
CN(CCC#N)C(=O)COC(=O)C1c2ccccc2Oc2ccccc21,-2%,-4%[46.1 µM],2%,2%,1%,/,-1%[46.1 µM],/
Cc1nn2c(N3CCN(C)CC3)c3c(nc2c1-c1ccccc1)CCCC3,10%,/,0%,1%,-1%,/,/,/
O=C(Nc1ccc(F)cc1)c1cccc(N2C(=O)c3ccccc3C2=O)c1,-16%,11%,-12%,3%,-1%,/,16%[46.1 µM],/
CN(Cc1ccccc1)C(=O)COC(=O)C1CCN(S(=O)(=O)c2ccc3c(c2)OCCO3)CC1,-1%,8%,-25%,/,-2%,/,8%,/
CCOc1ccc(N2C(=O)c3cccnc3C2Nc2ccc(Cl)cc2)cc1 (stereo not given),2%,7%,-21%,6%,3%,-7%,?,-0.5%
CCOC(=O)Cc1ccc(NC(=O)Nc2cc3c(cc2N2CCCCC2)n(C)c(=O)n3C)cc1,/,4%[46.1 µM],-14%,/,/,15%,?,-3.0%
COc1cccc(N2CC(NC(=O)c3cc(Cl)ccc3OC)CC2=O)c1 (stereo not given),/,20%[46.1 µM],-6%,/,/,-7%,/,-2.3%
COC(=O)c1ccccc1N=Cc1c(O)[nH]c(=O)[nH]c1=O,-7%,/,-1%,10%,3%,/,/,/
Nc1ccn(C2CCCO2)c(=O)n1 (stereo not given),12%,15%,-12%,/,/,/,9%,/
O=C1N/C(=C/c2ccsc2)C(=O)N1c1ccccc1,0%,/,37%[activator],-1%,-1%,/,/,/
CC(=O)c1cccc(NC(=S)NC(=O)Cc2ccccc2)c1,9%,?,17%,21%,0%,/,?,/
CC1CCCC(C)N1CCCNC(=O)C(=O)Nc1ccc2nc3n(c(=O)c2c1)CCCCC3 (stereo not given),-6%,/,2%,-4%,?,/,/,/
CCC[C@@H]1C[C@@]1(CCC)[C@@H](NP(=O)(c1ccccc1)c1ccccc1)c1ccc(C(=O)OC)cc1,14%,-24%,-7%,12%,-30%,0%&3%,3%,-7.5%&-7.0%
CCCC1C(=O)Nc2ccccc2N1C(=O)c1ccc(C(C)(C)C)cc1 (stereo not given),8%,?,-29%,-65%,-9%,/,?,/
Cc1ccc(NC(=O)Cn2cnc3c(oc4ccccc43)c2=O)cc1,/,?,-1%,/,/,-2%,/,-8.8%
O=C(CN1C(=O)CSC1=O)Nc1ccc(F)c(F)c1F,22%,5%,-7%,4%,-10%,1%,5%,2.6%
O=C1N(CN2CCOCC2)c2ccccc2C1(O)c1c[nH]c2ccccc12 (stereo not given),-17%,8%,10%,-3%,7%,-4%,-3%,6.0%
Cc1ccc2c(c1)C(O)(c1c(C)[nH]c3ccccc13)C(=O)N2 (stereo not given),-1%,-25%,-10%,4%,2%,17%,2%,0.9%
Cc1ccccc1Cn1nnc(-c2ccc3c(c2)OCO3)n1,2%,-20%,47%[activator],-30%,-54%,3%,-9%,-4.8%
CSc1ccc(C2c3[nH]c4ccccc4c3CCN2C(=O)c2ccnn2C)cc1 (stereo not given),13%,?,17%,9%,0%,/,?,/

# Of the compounds above, 2 have a CF3 group:
SMILES,RE007 growth inh,LASV entry inh,2A StopGo,NS1 inh,SARS PLP yeast,Cruzain noTriton,MARV entry inh,Cruzain Triton
O=C(COC(=O)CNC(=O)c1ccc(Cl)cc1)Nc1ccc(Cl)cc1C(F)(F)F,-12%,-5%,-13%,5%,?,6.3µM*,8%,8.9µM*
CCC(C)NC(=O)Cn1nc(C(F)(F)F)c2c1CCCC2 (stereo not given),-7%,0%,15%,9%,16%,4%,-5%,-0.6%

# (further entries)
SMILES,RE007 growth inh,LASV entry inh,2A StopGo,NS1 inh,SARS PLP yeast,Cruzain noTriton,MARV entry inh,Cruzain Triton
CSc1cc(-c2ccc(Cl)cc2)[nH]c(=O)c1C#N,-8%,/,-3%,12%,0%,/,/,/
COc1ccc(C(=O)CCC(=O)Nc2ccc(F)cc2F)cc1,/,20%[46.1 µM],11%,/,/,-3%,/,-0.7%
O=C(NCCc1c[nH]c2ccccc12)C(=O)NCC1OCCCN1S(=O)(=O)c1cc(F)ccc1F (stereo not given),-2%,?,?,/,0%,/,?,/
CCCOC1OC(=O)c2c1ccc(OC)c2OC (stereo not given),2%,10%,11%,3%,-18%,-21%,8%,2.0%
COc1cc2ccccc2cc1C(=O)N1CCN(C)CC1,16%,16%,/,-2%,-11%,-4%,-13%,0.0%
CCCCc1cc2c(cn1)=C(OC(=O)c1cnc3ccccc3n1)C(C)(OC(=O)CC)C(=O)C=2 (stereo not given),2%,/,7%,-5%,0%,/,11%&11%[14.2 µM],/
CCC(=O)N(Cc1ccco1)C1CC(=O)N(c2ccccc2)C1=O (stereo not given),-2%,11%,-5%,0%,-8%,4%,-11%,1.1%
CC1CCCCN1C(=O)C(Cc1ccccc1)N1C(=O)C2CCCCC2C1=O (stereo not given),-7%,22%,0%,-12%,11%,-2%,-2%,0.8%
CCOC(=O)N1CCN(S(=O)(=O)c2ccc3c(c2)NC(=O)CO3)CC1,-6%,-1%[46.1 µM],3%,/,/,/,-8%[46.1 µM],/
COc1ccc(C(=O)N2CCC(C(=O)N3CCN(c4ccccc4)CC3)CC2)cc1,-10%,-10%,-13%,/,/,/,1%,/
Cc1ccc2c(c1)COc1c3ccc(C(=O)N4CCOCC4)cc3nn1-2,-33%,/,81%[activator],-6%,-4%,/,/,/
CC(CN1CCCCC1)OC(=O)c1ccccc1F (stereo not given),-12%,/,-4%,-4%,13%,/,/,/
COc1cc(Cl)c(C)cc1NC(=O)c1ccc(CN2C(=O)CCn3nc(C)cc32)cc1,/,21%[46.1 µM],-8%,/,/,?,/,-5.8%
NC(=O)[C@@H]1CCCNc2c(F)cc([N+](=O)[O-])cc2C(=O)N[C@@H](CO)C(=O)N[C@@H](Cc2ccc(O)cc2)C(=O)N1,11%,-5%,5%,25%,8%,-10%,10%,-4.7%
Cc1ccc2cc(CCNC(=O)CCCc3ccccc3)c(=O)[nH]c2c1C,-7%,2%[46.1 µM],-16%,-9%,1%,/,-13%[46.1 µM],/
CC(C)C1C(=O)Nc2ccc(S(=O)(=O)NCc3ccc(Cl)cc3)cc21 (stereo not given),/,-2%[46.1 µM],?,/,/,-8%,/,-5.3%

# Outcome played no part in choosing rows (roughly 4.8% active in at least one column).
